Compound activity: PubChem BioAssay, Johns Hopkins Ion Channel Center
KCNQ2 block = KCNQ2 potassium channel inhibitors, primary screen, cell-based, CHO-K1, FluxOR thallium flux, B-score (AID 2156); O88943; 310,000 tested, 1.1% active; 20 min; active compounds read low; only compounds with negative scores are shown here; some inactives read as strong as hits; B-score at 10 µM;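 active means fluorescence ratio B-score at most minus 3 library SDs, with starting brightness B-score within 2 library SDs, cut at about -5.5 in these data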
Target sequence (O88943 whole entry, looked up): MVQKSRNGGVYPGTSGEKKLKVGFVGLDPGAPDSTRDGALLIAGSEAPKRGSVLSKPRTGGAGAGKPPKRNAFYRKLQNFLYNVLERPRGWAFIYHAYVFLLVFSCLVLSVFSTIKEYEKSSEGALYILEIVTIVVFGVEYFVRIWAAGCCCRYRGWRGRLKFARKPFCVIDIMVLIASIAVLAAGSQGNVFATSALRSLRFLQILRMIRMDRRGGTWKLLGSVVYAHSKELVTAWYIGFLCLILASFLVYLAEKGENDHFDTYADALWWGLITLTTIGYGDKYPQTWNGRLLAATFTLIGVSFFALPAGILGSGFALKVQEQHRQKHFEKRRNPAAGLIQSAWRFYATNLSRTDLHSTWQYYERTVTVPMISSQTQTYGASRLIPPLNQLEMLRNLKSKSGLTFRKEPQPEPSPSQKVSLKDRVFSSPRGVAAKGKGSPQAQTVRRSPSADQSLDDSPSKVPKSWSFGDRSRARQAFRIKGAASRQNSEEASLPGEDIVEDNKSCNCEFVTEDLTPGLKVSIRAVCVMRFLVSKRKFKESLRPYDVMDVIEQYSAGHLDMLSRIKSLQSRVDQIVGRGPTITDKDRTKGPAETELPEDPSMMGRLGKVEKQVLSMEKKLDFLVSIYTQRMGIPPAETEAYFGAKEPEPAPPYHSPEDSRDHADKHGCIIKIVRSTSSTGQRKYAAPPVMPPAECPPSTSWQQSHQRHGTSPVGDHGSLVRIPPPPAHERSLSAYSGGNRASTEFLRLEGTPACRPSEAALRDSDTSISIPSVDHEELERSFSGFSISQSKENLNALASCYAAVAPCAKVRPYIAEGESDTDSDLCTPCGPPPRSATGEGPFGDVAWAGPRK
KCNQ2 block baseline = further read-out of KCNQ2 block, marked with its call; B-score; measured here: initial fluorescence intensity artifact check;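 brightness before thallium and not channel activity; 0 = typical well and far values either way flag optical interference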
* = called active by the depositor; i = inactive.

SMILES	KCNQ2 block	KCNQ2 block baseline
CC(C)c1nc(N2CCN(C(=O)c3ccco3)CC2)c2c3c(sc2n1)CCCC3	-8.69*	-0.43*
Cc1ccc(C(=O)C(C)OC(=O)Cn2c(C)csc2=O)cc1 (stereo unspecified)	i	5.16
CC1C=CCC2C(=O)N(c3cccc(C(=O)NCCc4ccccc4)c3)C(=O)C12 (stereo unspecified)	i	-0.86
O=C1c2cccc3c([N+](=O)[O-])ccc(c23)C(=O)N1CC1CCCO1 (stereo unspecified)	i	-1.72
CC(C)(C)c1cc(Cl)ccc1OCCOCCN1CCCC1	i	0.93
CCOc1ccc(Oc2ccc(Cl)cc2NC(=O)C2=COCCO2)cc1	i	-1.87
Clc1cc2cccnc2c2ccccc12	i	0.27
CCOc1ccc(CNC(=O)CCCC(=O)n2nc(C)c3ccccc32)cc1	i	0.61
NC(=O)COC(=O)C1CSC2(c3ccc(F)cc3)CCC(=O)N12 (stereo unspecified)	i	-1.97
CCOc1ccccc1N1CN(Cc2ccccc2)CNC1=S	i	-1.51
CCOC(=O)Cn1nc(-c2ccc(Cl)cc2)cc1N	i	0.41
CCN(C(=O)COC(=O)C1CCN(S(=O)(=O)c2cccs2)CC1)c1ccccc1	i	1

In the list so far, these contain nitrogen in an aromatic ring:
SMILES	KCNQ2 block	KCNQ2 block baseline
CC(C)c1nc(N2CCN(C(=O)c3ccco3)CC2)c2c3c(sc2n1)CCCC3	-8.69*	-0.43*
Cc1ccc(C(=O)C(C)OC(=O)Cn2c(C)csc2=O)cc1 (stereo unspecified)	i	5.16
Clc1cc2cccnc2c2ccccc12	i	0.27
CCOc1ccc(CNC(=O)CCCC(=O)n2nc(C)c3ccccc32)cc1	i	0.61
CCOC(=O)Cn1nc(-c2ccc(Cl)cc2)cc1N	i	0.41

The listing picks up; the 2 compounds before the break are reprinted first.
SMILES	KCNQ2 block	KCNQ2 block baseline
CCOC(=O)Cn1nc(-c2ccc(Cl)cc2)cc1N	i	0.41
CCN(C(=O)COC(=O)C1CCN(S(=O)(=O)c2cccs2)CC1)c1ccccc1	i	1
OCCC1CN(Cc2cccnc2)CCN1CCc1ccccc1 (stereo unspecified)	i	-0.75
CN(C(=O)COC(=O)c1ccc([N+](=O)[O-])cc1Cl)C1CCCCC1	i	-1.5
CCOc1ccccc1N(CC(=O)Nc1ccccc1C(=O)NCc1ccco1)S(C)(=O)=O	i	0.13
Cn1cc(CN2CCCC(C(=O)c3cc(F)ccc3F)C2)c2ccccc21 (stereo unspecified)	i	-0.88
C=CC(C)N1C(=O)S/C(=C\c2ccc(N3CCOCC3)cc2C)C1=O (stereo unspecified)	i	2.64
NC(=O)NOCc1ccc(Cl)cc1Cl	i	-0.33
O=C(Nc1ccccc1Cl)c1ccccc1Cc1ccccc1	i	-0.49
COc1cccc(OC)c1OCC(O)CN1CCN(c2ccccc2F)CC1 (stereo unspecified)	i	0.06
Cc1ccc2c(c1)C1CN(C)CCC1N2C(=O)COc1ccc(N(C)C(=O)C(C)(C)C)cc1 (stereo unspecified)	i	0.79
c1coc(CN(Cc2ccco2)c2ncnc3c2oc2ccccc23)c1	i	-0.66
O=C(Nc1cccc(O)c1)c1cccc(NC(=O)c2cccs2)c1	i	-1.51
O=C1CCC(=O)N1CC(O)COc1ccccc1 (stereo unspecified)	i	0.6
COc1ccc(CN(CC(=O)NC(C)C)C(=O)CCC(=O)Nc2nccs2)cc1	i	-0.48
Cc1ccc(C)c(C(=O)C(C)Sc2nc3nn(-c4ccccc4)c(=O)c-3c3n2CCCCC3)c1 (stereo unspecified)	i	0.19
COC(=O)N/N=C\c1cccc(OC(=O)c2cccs2)c1	i	3.29
Cn1cccc1C(=O)/C(C#N)=C/c1ccc(F)cc1	i	-0.85
COc1ccc(NC(=O)CSc2nc(O)cc(=O)n2-c2ccccc2OC)cc1	i	0.27
COc1ccc(OC)c(S(=O)(=O)N2Cc3ccccc3CC2C(=O)Nc2nccs2)c1 (stereo unspecified)	i	-0.33
Cc1ccc(N2CSC3=C(C#N)C(c4cccs4)CC(=O)N3C2)cc1 (stereo unspecified)	i	1.34
CCc1ccc2[nH]c(=O)c(CN(CCO)C(=O)NCc3ccccc3)cc2c1	i	-0.11
Cc1cc[n+](-c2[nH]c(=O)sc2/C=N/NC(=O)c2ccccc2[O-])cc1C	i	0.02
CCOc1ccc2[nH]cc(S(=O)(=O)c3ccc(C)cc3)c(=O)c2c1	i	0.05
COc1cccc(C(C#N)N2CCOCC2)c1 (stereo unspecified)	i	0.41
O=C(COC(=O)CCNS(=O)(=O)c1ccc(Cl)cc1)NCc1ccco1	i	0.24
CC1Cc2cc(S(=O)(=O)N3CCC(C(=O)Nc4ccccn4)CC3)ccc2N1C(=O)C1CCC1 (stereo unspecified)	i	-0.75
O=C1CCCN2N=C(SCC(=O)Nc3ccc(Cl)cc3)SC2=N1	i	0.05
Cc1cccc(C(=O)N2CCN(c3ccc(N4CCOCC4)nn3)CC2)c1	i	0.16
Cn1c(=O)c2c(nc(N3CCN(C(=O)c4ccco4)CC3)n2CCSc2ncccn2)n(C)c1=O	i	-0.17
CN(C)CCCNC(=O)/C=C/c1ccc2c(c1)OCO2	i	2
Cn1c(=O)n(CC(N)=O)c(=O)c2c1nc1n2CCCN1Cc1ccccc1	i	-0.14
CSc1n[nH]c(-c2sccc2OCc2ccc(C)cc2)n1	-6.14*	-0.4*
O=C(C[n+]1cc(-c2ccc(Cl)cc2)n2c1CCC2)Nc1nc(-c2ccccc2)cs1	i	0.01
O=C(NNC(=O)c1cccs1)c1ccco1	i	-1.61
COc1ccc(NC(=O)C2CCC(CNc3c(N4CCCCC4)c(=O)c3=O)CC2)cc1OC (stereo unspecified)	i	-0.74
Cc1ccc(-c2nn3c(C)nnc3c3ccccc23)cc1S(=O)(=O)NC(C)(C)CO	i	-0.98
CC(=O)Nc1nc(C)c(CCC2OCCO2)c(=O)[nH]1	i	-1.28

Complete entries as entered above. Order of screens: KCNQ2 block	KCNQ2 block baseline
Cn1c(=O)c2c(nc(N3CCN(C(=O)c4ccco4)CC3)n2CCSc2ncccn2)n(C)c1=O reads i	-0.17
O=C(C[n+]1cc(-c2ccc(Cl)cc2)n2c1CCC2)Nc1nc(-c2ccccc2)cs1 reads i	0.01
O=C(NNC(=O)c1cccs1)c1ccco1 reads i	-1.61

(further entries)
SMILES	KCNQ2 block	KCNQ2 block baseline
CCOC(=O)N1CCC(NC(=O)C2CCCN(Cc3nc(-c4cccc(C)c4)oc3C)C2)CC1 (stereo unspecified)	i	0.09
O=C(CN1c2ccccc2Sc2ccccc21)NNC(=S)Nc1ccc(Cl)cc1	i	-1.03
Cc1ccc(OCCCn2c(=O)sc3ccccc32)cc1	i	-0.08
Cc1ccc(C(=O)N2CCCN(c3nc4cc5c(cc4cc3C#N)OCO5)CC2)cc1	i	-0.77
O=S(=O)(c1ccc(Br)cc1)N1CCN(c2ccc3nnc(-c4ccccc4)n3n2)CC1	i	0.63
COc1ccc(N=N/C(=C\O)C(=O)c2cccs2)cc1	i	0.12
CC(CN1CCOCC1)OC(=O)C1COc2ccccc2O1 (stereo unspecified)	i	0.24
CCOc1ccc(C(=O)NC(=S)Nc2ccc(N3CCOCC3)c(Cl)c2)cc1[N+](=O)[O-]	i	-0.02
COc1ccc(CN2C(=O)Cc3c2nc(N)c2c(N)nc(N4CCCCC4)c(C#N)c32)cc1	i	0.01
COc1ccccc1CNC(=O)CCc1cn(C)c2ccccc12	i	0.33
Cc1cccc(C(=O)NCC(=O)OCC(=O)N2CCc3ccccc32)c1	i	0.3
Cc1ccccc1NS(=O)(=O)c1cc(C(=O)NCc2ccncc2)ccc1Cl	i	1.64
CCN(CC(=O)Nc1ccc([N+](=O)[O-])cc1OC)c1ccccc1	i	1.6
O=C(c1nc2nc(-c3ccc(Cl)cc3)cc(C(F)(F)F)n2n1)N1CCOCC1	i	-0.03
CCc1cc(C(=O)N2CCN(c3ccccn3)CC2)sc1C	i	-0.73
CC(C)Oc1ccc(S(=O)(=O)N2CCCCC2)cc1NC(=O)C1CCC1	i	0.87
O=C(O)COc1ccc(NC(=O)c2ccco2)cc1	i	-0.2
COc1ccc(/C=C(/NC(=O)c2cccc([N+](=O)[O-])c2)C(=O)O)cc1OC	i	0.11
COc1ccc(-c2noc(CSc3ccc(C)cc3)n2)cc1	i	0.01
Cc1[nH]c2ccccc2c1C(=O)C(=O)NCCC1=CCCCC1	i	0.68
Cc1ccccc1N1C(=O)CC(N(O)c2ccccc2)C1=O (stereo unspecified)	i	0.21
O=C(NCC1CCCO1)C(c1cccs1)N(Cc1ccccc1Cl)C(=O)c1ccc(-c2ccccc2)[nH]1 (stereo unspecified)	i	-1.28
Clc1cccc(CN2CCCCCC2)c1Cl	i	0.55
Cc1nc2nc(SCC(=O)c3ccccc3)[nH]c2cc1Br	i	-0.32
COc1ccc(C(=O)N(C)CC(=O)Nc2cccc(F)c2)cc1S(=O)(=O)NC1CCCC1	i	-0.73
O=C1CCC(C(=O)N2CCCCCC2)CN1Cc1cccc(C(F)(F)F)c1 (stereo unspecified)	i	0.5
Cc1ccc(C2NC(c3ccc(C)cc3)C([N+](=O)[O-])C(C)(C)C2[N+](=O)[O-])cc1 (stereo unspecified)	i	-0.28
CCNc1nc(SC(C)C(=O)OC)nc(N(C)C)n1 (stereo unspecified)	i	-0.38
COc1ccc(-n2cc(-c3ccccc3)c3c(N4CCN(CCO)CC4)ncnc32)cc1	i	-0.21
CCOc1nc(-c2ccccc2)ccc1-c1noc(-c2ccco2)n1	i	0.07
Oc1c(Cl)cc(Cl)cc1CNc1ccccn1	i	0.58
COc1ccc(C)cc1N(CC(=O)N1CCCC1)S(C)(=O)=O	i	1.7
COc1cc(C2C(Oc3ccccc3C)C(=O)N2Cc2ccc(F)cc2)cc(OC)c1OC (stereo unspecified)	i	0.67
NC(=O)COC(=O)c1ccc(NS(=O)(=O)c2ccc3c(c2)OCCO3)cc1	i	-0.78
CCCCn1nnnc1SCC(=O)Nc1ccc(N(C)C)cc1	i	-0.26
Nc1cc(=O)[nH]n1C1CCCCC1	i	0.14

Three of the entries above in order of their number in KCNQ2 block baseline, low to high.
Molecule,KCNQ2 block baseline
CCNc1nc(SC(C)C(=O)OC)nc(N(C)C)n1 (stereo unspecified),-0.38
CCOc1ccc(C(=O)NC(=S)Nc2ccc(N3CCOCC3)c(Cl)c2)cc1[N+](=O)[O-],-0.02
CCOc1ccccc1N(CC(=O)Nc1ccccc1C(=O)NCc1ccco1)S(C)(=O)=O,0.13

The list continues.
SMILES	KCNQ2 block	KCNQ2 block baseline
CCN(CC)S(=O)(=O)c1cc(OC)c(Cl)cc1Cl	i	-0.31
Cc1ccc(NC(=O)CSc2nnc(NC(=O)CN3CCOCC3)s2)cc1	i	-0.99
CCOC(=O)/C(C#N)=C\c1ccc(CC)s1	i	0.13
COc1ccc(N2C(=O)C(CC(=O)Nc3ccccc3)N(Cc3ccc4c(c3)OCO4)C2=O)cc1 (stereo unspecified)	i	0.43
Cc1ccnc(NC(c2ccncc2)c2c(C)[nH]c3ccccc23)c1 (stereo unspecified)	i	-0.97
O=C(CCC1CCCC1)N=C1SC2CS(=O)(=O)CC2N1Cc1ccccc1 (stereo unspecified)	i	-0.78
CC1CCC(NC(=O)COC(=O)CSc2ccc(C(N)=O)cc2[N+](=O)[O-])CC1 (stereo unspecified)	i	1.66
Cc1ccc(S(=O)(=O)N2CCc3ccccc3C2CN2C(=O)c3ccccc3C2=O)cc1 (stereo unspecified)	i	1.62
Cc1cccc(NC(=O)N(Cc2cc3cc(C)cc(C)c3[nH]c2=O)CC2COCCO2)c1 (stereo unspecified)	i	0.26
CCN(CC(=O)NC(=O)NC1CCCCC1)Cc1ccccc1	i	-1.36
Cc1nc(N=C(N)N)nc2c(C)cccc12	i	-1.37
O=c1nccc(N/N=C/c2cccc(O)c2)[nH]1	i	-0.6
O=C(CSc1ncnc2c1cnn2-c1ccc(F)cc1)NCc1ccc2c(c1)OCO2	i	0.17
CCCCCN=Cc1c(C)[nH]n(-c2nc3ccccc3s2)c1=O	i	0.08
COc1ccc(CN2CCN(c3ncccn3)CC2)c(C)c1C	i	0.39
O=C(Nc1ccccc1)c1ccc(NCC2CCCO2)c([N+](=O)[O-])c1 (stereo unspecified)	i	-1.63
CCCc1nnc(SCC(=O)N2CCOCC2)n1CC1CCCO1 (stereo unspecified)	i	0.43
CCC(C)/C(C)=N/NC(=O)c1ccc(CSc2nc3ccccc3s2)cc1 (stereo unspecified)	i	-0.04
O=C(NC1CCCCC1)c1ccc(-c2ccc(Cl)cc2)o1	i	-0.41
Cc1ccc(C(C(=O)NC2CCCC2)N2CCc3ccccc32)cc1 (stereo unspecified)	i	1.32
O=C(CN1CCN(Cc2ccccc2Cl)CC1)N=Nc1c(O)[nH]c2ccccc12	i	-0.16
Cc1cc(C)c(C)c(S(=O)(=O)NCc2ccncc2)c1C	i	-1.33
CCOC(=O)C1CCN(C(=O)COC(=O)c2nc3nc(C)cc(C)n3n2)CC1	i	-0.68
CCCc1c(C(=O)Nc2ccc(F)cc2F)cnn1-c1ccccc1	i	-0.4
C=CCn1c(=NC(=O)c2ccc(S(=O)(=O)N3CCCC3)cc2)sc2cc(NC(C)=O)ccc21	i	0.59
S=C(Nc1ccccc1)N1CCN(Cc2ccccc2)CC1	i	-0.03
COCCNC(=O)CN(C(=O)Cn1nnc2ccccc21)c1ccc(C)cc1	i	0.85
Cc1ccc2nc(-c3ccc(Br)cc3)cn2c1	i	0.5
Cn1c(=O)c2c(-c3ccccc3)n(Cc3ccccn3)cc2n(C)c1=O	i	0.28
N=C1SCC(=O)N1/N=C/c1ccccc1	i	-0.39
Cc1cc(C)n2nc(SCc3nnc(-c4ccc(F)cc4)o3)nc2n1	i	0.14
NC(=O)NOCc1c(Cl)cccc1Cl	i	0.63
CC(=O)N1CCCc2cc(S(=O)(=O)N3CCN(C4CCCCC4)CC3)ccc21	i	-0.26

This is a subset, so the mix of outcomes need not match the whole.
